Bioassay records deposited in PubChem by National Center for Advancing Translational Sciences (NCATS).
TRPML1 ag: activates the human TRPML1 channel | TRPML1-expressing cells, Ca2+ dye fluorescence, FDSS; host cell line not named in the record; reference of the full effect not given here | activation, % (test concentration not listed) | actives 0.12% (n = 410,000); in the data active = activation above about 50%; inconclusive = about 30% to 50%; inactive = below about 30%; note: 0% is about no effect; the text of the record puts the active cut at 80%
Target sequence (Q9GZU1 whole entry, looked up): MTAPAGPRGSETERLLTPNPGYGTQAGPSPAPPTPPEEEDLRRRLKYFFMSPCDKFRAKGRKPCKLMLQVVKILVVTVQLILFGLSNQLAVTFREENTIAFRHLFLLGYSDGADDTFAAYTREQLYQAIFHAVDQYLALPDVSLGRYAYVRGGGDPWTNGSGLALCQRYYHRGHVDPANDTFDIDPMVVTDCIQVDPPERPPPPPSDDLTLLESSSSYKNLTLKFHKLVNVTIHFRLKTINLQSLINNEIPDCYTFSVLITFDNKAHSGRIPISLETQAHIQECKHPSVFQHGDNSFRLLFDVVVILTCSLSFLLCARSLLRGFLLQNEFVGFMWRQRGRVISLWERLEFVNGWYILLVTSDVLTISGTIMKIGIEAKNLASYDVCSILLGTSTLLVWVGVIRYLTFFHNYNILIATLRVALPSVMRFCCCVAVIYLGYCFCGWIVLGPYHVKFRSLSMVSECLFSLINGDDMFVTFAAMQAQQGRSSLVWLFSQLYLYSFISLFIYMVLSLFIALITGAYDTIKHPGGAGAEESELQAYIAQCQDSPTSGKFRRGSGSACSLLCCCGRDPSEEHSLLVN
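Cells: TRPML1-DL, 1X Tet inducer, ~16 h at 37 degrees C/5% CO2. Dye: ABD Ca8 no-wash + quencher, 45-90 min RT. Read: 10 s baseline, compound add, 110 s agonist phase; 54-4 EC80 (4uM final), 110 s antagonist phase.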
TRPML1 blocker: human mucolipin-1 channel inhibition; activity change, negative = inhibition, % (concentration not given with the values); TRPML1-inducible cells, Ca2+ dye fluorescence, FDSS; stronger effect = lower value; inhibition of EC80 agonist-evoked calcium signal; Q9GZU1; actives 0.02% (n = 390,000); in the data active means activity change below about -50%; inconclusive means about -30% to -50%; inactive means above about -30%;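 note: stimulus is agonist 54-4 at its EC80 concentration; % is set by controls: 0 for no effect and ±100 for the full control effect; compound concentration not given in the record; the text of the record puts the active cut at -80%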
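Tet-induced TRPML1-DL cells loaded with Ca8 no-wash calcium dye were read kinetically on FDSS. Compound addition was followed by EC80 agonist 54-4 (4 uM final); inhibition was read over 110 s.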
Six1-Eya2 blk: Six1/Eya2 interaction inhibition | AlphaScreen GST-Six1/His-Eya2 binding, biochemical; stronger effect = lower value; control for the full effect not named in the record | activity change, % (no concentration beside the values) | actives 0.56% (n = 360,000) | AID 651725; in the data active = activity change below about -65%; inconclusive = about -30% to -65%; inactive = above about -30%; note: % is set by controls: 0 for no effect and ±100 for the full control effect; compound concentration not given in the record
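AlphaScreen luminescence read after one hour at 37 °C in darkness. Pin-transferred compounds met GST-Six1 and His-Eya2 protein (5X stock 250 nM/500 nM) plus glutathione donor and Ni-chelate acceptor beads (5X, 50 ug/mL).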
PINK1 expr mod: changes PINK1 expression; PINK1 immunofluorescence, high-content cytometry, 24 h; Potency, µM (top dose mostly 76.6 µM), for the others: at the top dose activation (PINK1 increase), hits mostly activators; actives 0.2% (n = 410,000); active = well fitted activation curve with a large enough effect; inconclusive = small, poorly fitted or top-dose-only effect; inactive = flat fitted curve, though single readings scatter; cell line not stated here;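 note: potency is the fitted concentration of half-maximal effect; % of control where 0% means no effect; nearly all actives have a fitted effect of over 65% in size; a mitochondrial uncoupler was the plate control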
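PINK1 protein, normally rapidly degraded, was detected by immunofluorescence after 24 hour compound treatment of a stable cell line. Titration data (5 concentrations) came from laser-scanning cytometry, with CCCP-treated wells as controls.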
D2 agonist: agonists of human D2 dopamine receptor (beta-arrestin) | activation, % (no concentration beside the values) | DiscoveRx PathHunter D2 beta-arrestin, luminescence, 90 min; 100% = 57 uM dopamine signal | actives 0.084% (n = 360,000) | P14416; in the data active = activation above about 40%; inconclusive = about 15% to 40%; inactive = below about 15%; note: compound concentration not given in the record; the text of the record calls up to 30% inactive
Target sequence (P14416 whole entry, looked up): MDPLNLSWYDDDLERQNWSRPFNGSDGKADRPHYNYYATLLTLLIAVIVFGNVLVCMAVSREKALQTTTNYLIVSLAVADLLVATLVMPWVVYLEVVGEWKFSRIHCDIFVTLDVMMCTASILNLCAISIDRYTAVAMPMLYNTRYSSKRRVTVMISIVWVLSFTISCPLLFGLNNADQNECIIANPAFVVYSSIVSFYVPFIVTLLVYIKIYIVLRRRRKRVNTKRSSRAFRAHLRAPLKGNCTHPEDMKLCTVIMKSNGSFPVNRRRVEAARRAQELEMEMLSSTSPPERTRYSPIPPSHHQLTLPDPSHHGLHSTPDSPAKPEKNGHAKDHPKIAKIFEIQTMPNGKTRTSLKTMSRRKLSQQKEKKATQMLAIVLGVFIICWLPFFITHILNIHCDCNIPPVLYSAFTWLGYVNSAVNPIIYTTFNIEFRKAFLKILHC
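Agonist mode: compounds alone added to overnight-plated D2 PathHunter cells for 90 min at 37 C, with 57 uM final dopamine (EC100) defining full response. Beta-arrestin recruitment detected by chemiluminescent reagent, read after 1 h at ambient temperature.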
CtBP-E1A inh: inhibitors of CtBP/E1A interaction | AID 651724 | AlphaScreen GST-E1A/His-CtBP binding, 1536-well; stronger effect = lower value; control for the full effect not named in the record | actives 0.49% (n = 340,000) | activity change, % (concentration not given with the values); in the data active means activity change below about -65%; inconclusive means about -30% to -65%; inactive means above about -30%; note: % is set by controls: 0 for no effect and ±100 for the full control effect
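GST-E1A and His-tagged CtBP (125 nM each as 5X stock) were preincubated with pin-transferred compound for 2 h at 37 °C in the dark, then glutathione donor and nickel acceptor beads were added for 1 h before AlphaScreen reading.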
The depositor's hits bear a star; ? = inconclusive; / = no result given; [ ] = dose if it differs, or a comment.

| # | SMILES | CtBP-E1A inh | TRPML1 blocker | PINK1 expr mod | Six1-Eya2 blk | D2 agonist | TRPML1 ag |
| --- | --- | --- | --- | --- | --- | --- | --- |
| 1 | CCCCC(=O)Nc1ncc(S(=O)(=O)c2ccc([N+](=O)[O-])cc2)s1 | -4 | 5 | 0.2% | 1 | ? | 2.6 |
| 2 | S=c1[nH]nc2nnc3ccccc3n12 | -8 | -4 | 1.1% | -9 | -3.6 | 0.8 |
| 3 | O=C(NC(Cc1ccccc1)C(=O)O)/C(=C/c1ccc(Cl)cc1)NC(=O)c1ccccc1 (stereo not given) | -14 | 7 | 2.3% | 4 | -3.4 | 0.0 |
| 4 | COc1ccccc1NS(=O)(=O)c1cccc(N=C2N=C(N)c3ccccc32)c1 | / | 1 | -0.3% | -13 | -4.1 | -1.2 |
| 5 | CC(C)(C)c1ccc(C(=O)CS(=O)(=O)c2ccccc2)cc1 | -3 | 11 | 1.9% | -7 | 11 | 0.3 |
| 6 | COC(=O)C(Cc1c[nH]c2ccccc12)NC(=O)c1cncc(Br)c1 (stereo not given) | -4 | / | 5.3% | -22 | -7.0 | / |
| 7 | COc1ccc(N2CCN(S(=O)(=O)CCNC(=O)c3ccc(C(F)(F)F)cc3)CC2)cc1 | / | -20 | -1.6% | / | / | 2.7 |
| 8 | Cc1ccc(NC(=O)CN(C)C(=O)COC(=O)[C@@H](NC(=O)c2ccccc2F)C(C)C)cc1 | 11 | -7 | -1.1% | 4 | 5.6 | -0.7 |
| 9 | CC1CN(C(=O)CS(=O)(=O)Cc2ccc(Cl)cc2)CC(C)O1 (stereo not given) | 4 | 33 | -0.5% | 5 | -6.3 | 0.3 |
| 10 | Cc1ccc(N=c2c([N+](=O)[O-])nn(-c3ccccc3)n2O)c(C)c1 | ? | -5 | 0.2%[38.3 µM] | ? | 9.8 | -0.2 |
| 11 | Cc1nc(NC(=O)COC(=O)C2=NNC(=O)CC2)c(Cl)cc1Cl | 0 | 1 | 1.6% | 6 | 4.3 | -0.3 |
| 12 | O=C(CSc1ncnc2c1oc1ccccc12)Nc1ccccc1C(F)(F)F | -1 | -4 | 4.8% | 5 | -6.3 | 0.6 |
| 13 | CC(C)(C)c1ccc(CC(=O)N2CCC2(C)C(=O)Nc2cnc3ccccc3c2)cc1 (stereo not given) | -7 | / | 5.8% | -4 | 9.6 | -0.1 |
| 14 | CCC(Oc1ccc(C)cc1)C(=O)Nc1ccccc1C(=O)N1CCOCC1 (stereo not given) | 5 | 0 | 0.3% | -2 | 3.7 | -0.7 |
| 15 | O=C(CCS(=O)(=O)c1nc(-c2ccc3c(c2)OCO3)cc(C(F)(F)F)n1)Nc1ccccc1C(F)(F)F | / | -9 | -2.1% | / | / | 1.4 |
| 16 | Cc1ccc(NC(=O)CN(C)C(=O)c2cc(-c3cccs3)nn2-c2ccccc2)cc1 | -10 | -5 | -0.7% | 2 | -2.8 | 1.7 |
| 17 | CCCCSc1nc2sc3c(c2c(=O)[nH]1)CC(C)(CC)OC3 (stereo not given) | -8 | -5 | 3.2% | 3 | -1.7 | -1.1 |
| 18 | Cc1c(C(=O)NCc2ccc(OC(C)C)cc2)sc2ncnc(N(C)C3CCCCC3)c12 | / | -7 | 1.0% | / | / | 0.3 |
| 19 | COCC(=O)O[C@]1(CCN(C)CCCc2nc3ccccc3[nH]2)CCc2cc(F)ccc2[C@@H]1C(C)C | -7 | 9 | 0.6% | -8 | 1.5 | 0.5 |
| 20 | CCC(=O)N1CCCC(C(=O)Nc2ccc3cn[nH]c3c2)CC1 (stereo not given) | 1 | / | -0.4% | 2 | 2.9 | -0.3 |
| 21 | O=C(CNCc1ccccc1)Nc1ccc(Cl)cc1 | / | -6 | 5.5% | 1 | -4.3 | 2.4 |
| 22 | Nc1nc(SCC(=O)Nc2ccc([N+](=O)[O-])cc2)[nH]c(=O)c1NC(=O)c1ccc(Br)o1 | -4 | -4 | 1.0% | ? | -3.5 | -0.1 |
| 23 | COc1cc(C(=O)N2CCN(S(=O)(=O)c3ccc(Cl)cc3)CC2)ccc1OCC(=O)N1CCOCC1 | 21 | -7 | 0.5% | 12 | -2.1 | -0.2 |
| 24 | COc1ccc(CCN(C)C(=O)CCCN2C(=O)c3cccc4cccc(c34)C2=O)cc1OC | 0 | 6 | 4.9% | -5 | 5.3 | 2.0 |
| 25 | Cc1ccc(C(=O)NNc2cc(=O)n(C)c(=O)n2C)cc1C | / | 25 | 0.3% | -5 | -4.8 | -0.4 |
| 26 | COC(=O)c1ccc(NC(=O)C2CC3CCC2C3)cc1 (stereo not given) | 6 | 18 | 1.1% | 10 | -2.2 | 0.7 |
| 27 | COc1cc(S(=O)(=O)N2CCCC3(CCCCC3)C2)ccc1-n1cnnn1 | -11 | 7 | 3.0% | 7 | 0.2 | -0.7 |
| 28 | CCN(CC)S(=O)(=O)c1cc(NC(=O)c2cccc(N3C(=O)CCC3=O)c2)ccc1Cl | -4 | 12 | 2.6% | -7 | 1.1 | -0.2 |
| 29 | Cc1cc(Sc2nc(N)ncc2[N+](=O)[O-])ncn1 | ? | 15 | 2.6% | ? | -3.1 | 2.0 |
| 30 | COC(=O)c1ccc(NC(=O)CN(c2cccc(C(F)(F)F)c2)S(C)(=O)=O)cc1 | / | -7 | 5.0% | / | / | 1.6 |
| 31 | Cc1nn(Cc2ccc(C(=O)N3N=C(C(F)F)CC3(O)C(F)F)cc2)c(C)c1[N+](=O)[O-] (stereo not given) | -11 | -15 | -1.5%[38.3 µM] | -5 | -3.2 | 1.0 |
| 32 | O=C(O)c1cccc(S(=O)(=O)N2CCC(n3nnc4cc(C(F)(F)F)ccc43)CC2)c1 | -2 | -13 | 0.6% | -7 | -5.5 | 0.5 |
| 33 | CCN(CC)CCC(=O)N1c2ccccc2Sc2ccc(Cl)cc21 | -8 | 20 | 1.6% | -6 | -0.7 | 0.7 |
| 34 | Cc1cccc(NC(=O)CSc2nnc(-c3ccco3)c(-c3ccco3)n2)c1 | ? | -9 | -1.1% | ? | -1.0 | 2.1 |
| 35 | COc1ccccc1-n1cnc2c(c1=O)c1nc3ccccc3nc1n2-c1ccc(C)c(C)c1 | / | 15 | 0.3% | 6 | -5.2 | 0.3 |
| 36 | CCC(=O)N1CCc2cc(S(=O)(=O)CCC(=O)Nc3ccc(Cl)c(C(F)(F)F)c3)ccc21 | / | -14 | 2.3% | / | / | 0.0 |
| 37 | O=C(CSc1nc(-c2ccccc2Cl)ns1)NCc1ccco1 | -5 | -8 | -0.7% | -7 | -3.4 | 0.2 |
| 38 | Fc1cccc(NC(=S)N2CCCCC2)c1 | 3 | -2 | 0.3% | 5 | -1.5 | 1.0 |
| 39 | COc1ccc(NC(=O)c2cc(-c3cc(C)cs3)[nH]n2)cc1OC | -19 | / | 1.5% | -14 | 4.6 | -0.5 |
| 40 | Cc1ccc(-c2cc(-c3ccccc3)nc(N/N=C/c3cccnc3)n2)cc1 | -12 | 21 | 3.2%[38.3 µM] | -7 | -2.8 | 0.9 |
| 41 | COc1ccc(NC(=O)C(=O)NNC(=O)c2cccs2)c(OC)c1 | -2 | -4 | 5.0% | -1 | -2.2 | -1.1 |
| 42 | CCOc1ccc(C2c3c(oc4ccccc4c3=O)C(=O)N2c2nnc(C)s2)cc1OC (stereo not given) | / | -1 | 0.6% | / | / | 0.6 |
| 43 | O=C(NCC1CCCO1)C(=O)c1c[nH]c2ccccc12 (stereo not given) | 0 | 5 | 0.5% | -10 | -1.4 | 1.8 |
| 44 | CCc1nc(CNC(=O)C2CCC(=O)N(Cc3cccc(OC)c3)C2)no1 (stereo not given) | 4 | -3 | -1.0% | 8 | 0.5 | -0.2 |
| 45 | O=C(Nc1ccc(C(=O)O)cc1)Nc1ccc([N+](=O)[O-])cc1 | 0 | -15 | 0.6% | -6 | -0.9 | -0.3 |
| 46 | Cc1cccc(NC(=O)CSc2nc(-c3cccs3)cc(C(F)(F)F)c2C#N)c1C | / | -16 | -0.2% | / | / | 4.7 |
| 47 | O=C(Nc1ccc(F)cc1)c1ccccc1NS(=O)(=O)N1CCCC1 | 5 | -1 | 23% | 5 | -6.6 | 1.6 |
| 48 | O=C(CC(C(=O)O)c1cccc(Br)c1)c1ccc(Cl)cc1 (stereo not given) | -15 | 6 | 0.0% | -6 | -2.4 | 0.7 |
| 49 | COc1ccccc1CNC(=O)COc1cc2c(c3oc(=O)cc(C)c13)CCC(C)(C)O2 | 0 | / | 0.2% | -5 | 6.2 | / |
| 50 | Cc1ccc(NC(=O)COC(=O)Cn2cnc3ccccc32)c(C)c1 | -4 | 7 | 1.2% | 3 | -0.8 | 0.2 |
| 51 | CCN(CC)C(=O)c1n[nH]c(=O)c2ccccc12 | 5 | 25 | -3.1%[38.3 µM] | 5 | 2.1 | -0.5 |
| 52 | CC(C(=O)Nc1ccc(Cl)cc1Cl)N1C(=O)NC2(CCCCCCC2)C1=O (stereo not given) | 4 | -1 | 4.0% | 0 | 3.3 | -0.2 |
| 53 | COC(=O)c1ccc(CSc2nnc(N)s2)cc1 | 8 | -2 | -2.9% | 3 | 1.3 | -0.6 |
| 54 | O=C(Nc1nccs1)OCc1ccccc1 | 2 | 18 | 1.6% | 6 | -1.4 | 1.2 |
| 55 | CCOC(=O)c1cccc(NC(=O)CSc2nnc(C)n2Cc2ccccc2)c1 | 0 | 8 | 1.6%[38.3 µM] | -9 | -1.2 | 1.2 |
| 56 | CCn1cc(S(=O)(=O)c2ccc(C)cc2)[nH]c1=O | 0 | 14 | -2.0% | 2 | -3.6 | 1.8 |
| 57 | O=C(NCCn1cccc1)c1cccc2ccccc12 | -16 | -3 | 1.7%[38.3 µM] | -5 | -2.3 | 3.0 |
| 58 | O=C(NC(=S)NCC1CCCO1)c1ccc(Cl)cc1 (stereo not given) | 0 | 1 | 0.6% | -5 | 0.2 | 3.8 |
| 59 | COc1ccccc1NC(=O)Nc1ccccc1C(N)=O | / | 20 | 1.0% | -8 | -4.9 | 0.6 |
| 60 | Nc1nnc(Cc2cccc(Br)c2)s1 | 6 | 39 | 1.6% | 5 | -0.8 | 1.0 |
| 61 | Cc1ccc(NC(=O)CN2C(=O)NC3(CCc4ccccc43)C2=O)cc1 (stereo not given) | -5 | 19 | 0.8% | 5 | -6.6 | -0.5 |

Laid out differently: results already given.
48. O=C(CC(C(=O)O)c1cccc(Br)c1)c1ccc(Cl)cc1 (stereo not given)
  CtBP-E1A inh = -15 | TRPML1 blocker = 6 | PINK1 expr mod = 0.0% | Six1-Eya2 blk = -6 | D2 agonist = -2.4 | TRPML1 ag = 0.7
49. COc1ccccc1CNC(=O)COc1cc2c(c3oc(=O)cc(C)c13)CCC(C)(C)O2
  CtBP-E1A inh = 0 | TRPML1 blocker = / | PINK1 expr mod = 0.2% | Six1-Eya2 blk = -5 | D2 agonist = 6.2 | TRPML1 ag = /
50. Cc1ccc(NC(=O)COC(=O)Cn2cnc3ccccc32)c(C)c1
  CtBP-E1A inh = -4 | TRPML1 blocker = 7 | PINK1 expr mod = 1.2% | Six1-Eya2 blk = 3 | D2 agonist = -0.8 | TRPML1 ag = 0.2
51. CCN(CC)C(=O)c1n[nH]c(=O)c2ccccc12
  CtBP-E1A inh = 5 | TRPML1 blocker = 25 | PINK1 expr mod = -3.1%[38.3 µM] | Six1-Eya2 blk = 5 | D2 agonist = 2.1 | TRPML1 ag = -0.5
